Screens: PubChem, National Center for Advancing Translational Sciences (NCATS)
Vaccinia Venus: vaccinia inhibition (Venus reporter); Vaccinia virus Venus reporter expression, fluorescence; 0.46% of 330,000 active; Potency, µM (highest dose often 36.5 µM), for inactives: at the top dose activity change, negative = inhibition, actives largely listed as inhibitors; active means well fitted inhibition curve with a large enough effect; inconclusive means small, poorly fitted or top-dose-only effect; inactive means no such curve, though single readings can be large or run the other way; tested in A549 cells; also: nearly all actives have a fitted effect of over 30% in size; inactives centre near -10
Vaccinia mCherry: vaccinia inhibition (mCherry reporter) | Vaccinia virus mCherry reporter infection, fluorescence; about a quarter of the inactives have no number | Potency, µM (highest dose often 36.5 µM), for the others: at the highest dose activity change, negative = inhibition, usual class: inhibitors | 0.63% of 310,000 active; active = well fitted inhibition curve with a large enough effect; inconclusive = small, poorly fitted or top-dose-only effect; inactive = no such curve, though single readings can be large or run the other way; tested in A549 cells; also: nearly all actives have a fitted effect of over 35% in size; inactives centre near -10
An asterisk follows results filed as active; i = inactive; ? = inconclusive; nt = no result given; & = joins results of further samples; [ ] = remark or other dose. % is scaled to controls: 0 for no effect and ±100 for the full control effect; potency is read from the fitted curve at half-maximal effect.

SMILES | Vaccinia Venus | Vaccinia mCherry
Cc1c(C)c2ccc(OC(C)C(=O)N[C@@H](Cc3c[nH]c4ccccc34)C(=O)O)c(C)c2oc1=O (some centres not stated) | 2% | -1%
Cc1ccc(C(C(=O)NC2CCCCC2)N(CC2CCCO2)C(=O)CNC(=O)c2ccco2)cc1 (configuration not stated) | -13% | -15%
Cc1ccc(NC(=O)c2c(C)oc3ncnc(N4CCCCC4)c23)c(C)c1 | -21% | -3%
Cc1ccccc1/C=N/NC(=O)c1sccc1C | -11% | i
O=C(NCCc1ccccc1)[C@@H]1CC=C[C@@H]2CCN(C3CCCCC3)C(=O)[C@@H]21 | -14%&-22% | -29%
O=C(Nc1nnc(CC(=O)N2CCOCC2)s1)C1COc2ccccc2O1 (configuration not stated) | -3% | -12%
O=C(O)CNC(=O)C1COc2ccccc2O1 (configuration not stated) | -6% | nt
O=C(Oc1ccccc1)c1cccc2cccnc12 | -1% | i
NC(=O)COC(=O)Cc1coc2cc3c(cc12)CCC3 | -7% | -7%
CC1CCCCC1NC(=O)COn1nnc2ccc(Cl)cc21 (configuration not stated) | -14% | i

Later entries
SMILES | Vaccinia Venus | Vaccinia mCherry
CC(C)Cc1ccc(S(=O)(=O)Nc2cc3c(cc2N2CCOCC2)n(C)c(=O)c(=O)n3C)cc1 | ? | ?
Cc1cccc(NC(=O)c2ccc(-c3ccccc3)s2)c1 | -5%[7.34 µM] | -11%[7.34 µM]
CS(=O)(=O)N1CCN(c2ccccc2NC(=O)c2cccc3ccccc23)CC1 | -14% | -17%
Cc1cccc(C)c1OCC(=O)Nc1cccc(C(=O)O)c1 | -1% | -13%
CC(C)C(=O)NC(c1ccco1)c1ccc2cccnc2c1O (configuration not stated) | ? | nt
Cc1cc2n(n1)CCCN2C(=O)Nc1ccc(C)c(Cl)c1 | -13% | -11%
CNC(=O)N(C)c1nnc(C(C)(C)C)s1 | -4% | -19%
CCc1nc2ccccc2c(C(=O)Nc2cccc(C)c2)c1C | -14% | -13%
COC(=O)/C=C1/S/C(=N/NC(=O)c2ccccc2OC)NC1=O | -24% | -13%
CCO[C@H]1OC(C(=O)N2CCN(Cc3ccccc3)CC2)=C[C@@H](c2cn(C(C)=O)c3ccccc23)[C@@H]1CCCO | -26% | -15%

(continued)
SMILES | Vaccinia Venus | Vaccinia mCherry
Cn1c(=O)c2c(-c3ccccc3)n(-c3cc([N+](=O)[O-])ccc3N)cc2n(C)c1=O | 7% | 3%
COc1ccc(N=C(NN)c2ccc3ccccc3n2)cc1 | -6% | i
O=C1NC[C@@H](CCCCN2C[C@H](Cc3ccc(O)cc3)N(Cc3ccccc3)C(=O)C2=O)N(Cc2ccccc2)C1=O | 9% | 2%
O=C(NC(=S)Nc1ccccn1)c1cc(-c2ccccc2)nc2ccccc12 | -14% | ?
CN1CCc2c(c3c(n2C)CCN(C)C3c2ccc(F)cc2)C1c1ccc(F)cc1 (configuration not stated) | -5% | -11%
Cc1ccc(C(=O)c2oc3ccccc3c2NC(=O)c2cc(-c3ccccc3O)n[nH]2)cc1 | -17% | -21%
O=S(=O)(Nc1ncn[nH]1)c1ccc2ccccc2c1 | 0% | -4%
CCOC(=O)Cn1c(=NC(=O)CSC(C)=O)sc2cc(OC)ccc21 | ? | nt
CCCOc1ccc(OC(=O)c2c(-c3ccccc3Cl)noc2C)cc1 | -9% | -12%
Cc1cc(C)c(NC2=NCC(=O)N2C2CCCCC2)c(C)c1 | -10% | -15%

(next part)
SMILES | Vaccinia Venus | Vaccinia mCherry
O=C1NC(=O)C(Nc2cccc3ccccc23)S1 (configuration not stated) | -1% | nt
CCOC(=O)N1CCN(C(=O)c2ccc3c(=O)n(-c4ccccc4F)c(=S)[nH]c3c2)CC1 | -19% | -31%
CCOC(=O)c1c(NC(=O)CN2CCN(c3ccc(Cl)cc3)CC2)sc(C)c1C | -4% | -6%
CN(CCO)C(=O)c1cn(C2CCN(Cc3ccc4ccccc4c3)CC2)nn1 | 0% | -7%
CC(=O)c1ccc(NS(=O)(=O)c2cnc(N)nc2)cc1 | -13% | i
O=C(CSCc1ccccc1F)NCc1ccc(F)cc1 | -10% | -4%
CN(C(=O)c1ccncc1)c1nnc(-c2ccccn2)s1 | -14% | i
Nc1nc(NC(=O)CCC(=O)O)nn1-c1ccccc1 | -5% | i
O=C(OCCc1ccccn1)c1cccc([N+](=O)[O-])c1 | -24% | i
CCCCCC(=O)Nc1cccc(S(=O)(=O)NC2=NCCC2)c1 | -8% | -15%

(cont.)
SMILES | Vaccinia Venus | Vaccinia mCherry
Cc1ccc(OCC(=O)Nc2nc(-c3ccc(Br)cc3)ns2)cc1 | -15% | -5%
O=C(Nc1c(Cl)cc([N+](=O)[O-])cc1Cl)c1cc(Cl)cc(Cl)c1O | ? | ?
Cc1ccc(-c2nn(C)c(=O)c3ccccc23)cc1S(=O)(=O)NCCN(C)C | -10% | 1%
CCc1ccc(N2CCN(C(=O)c3ccc(OC)c(OC)c3)CC2)cc1 | -17% | -14%
Cc1ccc(S(C)(=O)=O)cc1S(=O)(=O)Nc1ccccc1 | 4% | -11%
O=C(c1nnsc1S(=O)(=O)c1ccc(Cl)cc1)N1CCOCC1 | ? | ?
Cn1c(-c2ccc(F)c(F)c2)cc2onc(-c3ccccc3)c2c1=O | -14% | -11%
Cc1ccccc1CSCC(=O)Nc1ccccc1-c1ccccc1 | -24% | -18%
S=C(c1ccc(Br)cc1)N1CCCC1 | -12% | -17%
Cc1ccc(N=Nc2c(N)nn3c(N)c(C#N)c(C)nc23)cc1 | ? | ?

Following part.
SMILES | Vaccinia Venus | Vaccinia mCherry
Cc1sc2nc(SCC(=O)Nc3ccccc3F)[nH]c(=O)c2c1C | -10% | i
CN1CCN(CC(=O)Nc2nc(-c3c[nH]c4ccccc34)cs2)CC1 | -15% | -23%
O=C(OCc1nnc(-c2ccccc2)o1)c1ccc(Br)o1 | 3% | -6%
COc1ccc(Cl)cc1S(=O)(=O)N(C)CC(=O)N1CCOCC1 | -17% | -25%
CCOCCCNC(=O)c1ccc2c(=O)n(Cc3ccc4c(c3)OCO4)c(=S)[nH]c2c1 | 0% | i
CC1=C(C#N)C(=O)NC(=O)/C1=C\c1ccc(-c2ccc(C)cc2[N+](=O)[O-])o1 | 6% | 7%
Cc1cc(S(=O)(=O)NC[C@H]2O[C@@H](n3ccc(N)nc3=O)[C@H](O)[C@@H]2O)c(C)s1 | -13% | i
O=C(Nc1ccccn1)C1CCCN1S(=O)(=O)c1ccc(Cl)cc1 (configuration not stated) | -12% | -10%
O=C(Nc1ncccc1O)c1cccc(S(=O)(=O)NCc2ccccc2)c1 | -14% | i
CN(C(=O)CSc1nc2ccc(NC(=O)c3cccc(F)c3)cc2s1)c1ccccc1 | -29% | -9%

More structures follow.
SMILES | Vaccinia Venus | Vaccinia mCherry
O=C(/C=C/c1ccc[nH]1)c1ccccc1 | -5% | -1%
COc1cccc(C(=S)N2CCOCC2)c1OS(=O)(=O)c1ccc(Cl)cc1 | -4% | -9%
Cc1ncc([N+](=O)[O-])n1CC(=O)NC1CCCCCC1 | -5% | 1%
CC(=O)Nc1ccc(-c2ccc(NC(C)=O)cc2)cc1 | -10% | i
COc1ccc([N+](=O)[O-])cc1NC(=O)COC(=O)C12CC3CC(CC(O)(C3)C1)C2 | -3% | -4%
COc1ccc(C(=O)NCCCOC(C)C)cc1OC1CCN(C(C)=O)CC1 | -7% | i
CC(C)C1C(=O)N(Cc2cn(CCC3OCCO3)nn2)CCS(=O)(=O)N1Cc1ccc(-c2ccccc2Cl)cc1 (configuration not stated) | -16% | 9%
Cc1ccc(NC(=O)NC2CCCCC2)cc1S(=O)(=O)N1CCOCC1 | -19% | -4%
COc1ccc(NC(=O)CC2C(=O)N(c3ccc(OC)cc3)C(=O)N2C2CCCCC2)cc1 (configuration not stated) | 0% | 3%
Cc1cccc(C(=O)Nc2c3c(nn2-c2ccc(Cl)cc2)CS(=O)(=O)C3)c1 | -11% | -6%

Additional entries follow:
SMILES | Vaccinia Venus | Vaccinia mCherry
CCOc1ccccc1NC(=O)COc1cccnc1[N+](=O)[O-] | -17% | -18%
Cc1ccc(NC(=O)C2=COCCO2)cc1S(=O)(=O)N1CCOCC1 | 0% | i
S=C(Nc1ccc(Oc2ccccc2)cc1)NC1CCCCC1 | ? | ?
CCCN1CCN(c2ncc3c(n2)CCN(Cc2ccc(OC)c(OC)c2OC)C3)CC1 | -12% | -12%
COc1ccccc1NS(=O)(=O)c1cn(C)c(C)n1 | -5% | -7%
COCCCn1c(C)nnc1SCC(=O)NCc1ccco1 | -7% | -21%
CCCCC1=CC2=C(c3ccco3)C(=O)C(C)(OC(=O)c3ccc(OC)cc3)C(=O)C2=CN1c1ccccc1 (configuration not stated) | -12% | ?
Cc1ccc2nc(N(Cc3cccnc3)C(=O)C3COc4ccccc4O3)sc2c1 (configuration not stated) | -15% | -11%
CCCN(C(=O)c1c(C)oc2ncnc(N3CCOCC3)c12)c1ccc(Cl)c(Cl)c1 | -5% | -6%
COC(=O)c1ccc(CSc2ccc(S(=O)(=O)N3CCCCC3)cn2)cc1 | -2% | -10%

The list goes on.
SMILES | Vaccinia Venus | Vaccinia mCherry
Cc1ccc(C2CC(=O)N(Cc3ccc(F)cc3)c3c2c(C)nn3-c2nc(C)cc(C)n2)cc1 (configuration not stated) | -17% | -5%
Cc1cccc(/C=C2\CS/C(=C\c3cccc(C)c3)C2=O)c1 | -3% | -9%
O=c1[nH]c(C2CCCN(S(=O)(=O)c3ccccc3)C2)nc2c1nnn2Cc1ccccc1Br (configuration not stated) | -7% | -17%
Cn1c(=O)c2c(nc(N3CCN(c4ccccn4)CC3)n2Cc2ccc(Cl)cc2Cl)n(C)c1=O | -2% | -13%
O=C(N/N=C\c1cn(-c2ccccc2)nc1-c1ccccc1)c1ccc2c(c1)OCO2 | -35% | nt
Cc1cccc(NCc2ccc(O)c3ncccc23)c1C | -14% | -26%
CC(=O)N(C1=C(Cl)C(=O)c2ccccc2C1=O)c1ccc(C(=O)O)cc1 | 15% | i
COc1cc(-c2nnc(NC(=O)CS(=O)(=O)c3ccc(C)cc3)o2)cc(OC)c1OC | -5% | i
CCC(Oc1ccccc1)C(=O)NCCOC (configuration not stated) | -15% | -3%
O=C(CSc1nnc(NC(=O)C2CC2)s1)NCc1ccccc1Cl | 6% | -15%

Following part
SMILES | Vaccinia Venus | Vaccinia mCherry
CN1CCC(N(C)S(=O)(=O)c2ccc(NC(=O)COc3cccc(C(F)(F)F)c3)cc2)CC1 | -27% | ?
CCCNC(=O)C1(C)CCN(C(=O)c2cccc(C(F)(F)F)c2)C1 (configuration not stated) | -3% | 1%
c1ccc(-c2cn(CC3CCCCC3)nn2)cc1 | -2%&-14% | -11%
Cc1ccc(CNC(=O)C2CC(c3ccc(C(F)(F)F)cc3)=NO2)o1 (configuration not stated) | -19% | -15%
Cc1ccc(C2CC(c3ccccc3OC(F)F)Nc3ncnn32)cc1 (configuration not stated) | -14% | -7%
Cc1c(C(=O)NCc2ccc(C#N)cc2)sc(=O)n1Cc1ccccn1 | -6% | i
CCC(Oc1ccccc1)C(=O)N(Cc1ccccc1)c1ccccn1 (configuration not stated) | -12% | i
C[C@H]1CN([C@@H](C)CO)S(=O)(=O)c2ccc(Br)cc2O[C@H]1CN(C)S(=O)(=O)c1ccccc1F | -14% | -3%
Cc1cc(C(=O)N/N=C/c2cccs2)no1 | -10% | i
O=C(O)c1cn(-c2ccc(F)c(F)c2)c2c(F)c(F)c(F)c(F)c2c1=O | 1% | -15%

More compounds:
SMILES | Vaccinia Venus | Vaccinia mCherry
CC(C)Cn1c(N)c(C(=O)COC(=O)c2ccc(F)cc2)c(=O)n(C)c1=O | -4% | i
CN(CCCNC(=O)Cn1ncc2c([nH]c3ccccc32)c1=O)Cc1ccccc1 | -9% | -9%
COc1cc(OC)c(OC)cc1/C=N/NC(=O)c1ccc(=O)n(C)c1 | -7% | -10%
O=C(Nc1cccc(OCc2cc(=O)n3c4c(sc3n2)CCCC4)c1)c1ccc(F)cc1 | -8% | -5%
CCCc1c(Cc2cccc(F)c2)ncn1Cc1cccc(-c2ccccc2)c1 | -23% | ?
COc1cccc(-c2nc(-c3ccc(Br)o3)no2)c1 | 10%&1% | -6%&-15%
COc1ccc(Cl)cc1NC(=O)CSc1nc2c(oc3ccccc32)c(=O)n1Cc1ccco1 | -1% | i
COC(=O)C1=C(C)NC(=O)CC1c1ccc(C(=O)OC)cc1 (configuration not stated) | -20% | nt
O=C(CNc1ccc(Br)cc1)Nc1cccc(S(=O)(=O)N2CCCC2)c1 | ? | ?
Cc1ccc(-c2ccc(/C=N/NC(=O)CN3CCOCC3)o2)cc1[N+](=O)[O-] | -16% | -21%
CCN(CC(=O)Nc1ccc2c(c1)OCCO2)S(=O)(=O)c1ccc(F)cc1 | -15% | -14%
O=C(Cn1cc(C(=O)C2CCCCC2)c2ccccc21)NCC1CCCO1 (configuration not stated) | -10% | -12%
CCOCCCNCc1cc(Br)ccc1OCc1ccccc1 | -1% | -10%
